From PubChem BioAssay
RanGTP-Impb inh = inhibitors of RanGTP-importin-beta interaction, primary screen, biochemical, FRET, CFP-Ran, YFP-importin-beta, homogeneous. hit rate 1.1% among 300,000. inhibition, % (test concentration not listed). cell-free CFP-Ran/YFP-importin-beta FRET ratio. Ran GTPase (GTP-bound) - importin-beta complex;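 active means most replicates above 15%; inconclusive means exactly half above 15%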;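 further: 0% = DMSO wells and 100% = Ran loaded with GDP instead of GTP; wells of about 40 µL received 100 nL stock; the first replicate is given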
MLL AF4-AF9 inh = inhibitors of AF4 peptide binding to AF9, primary screen, biochemical, AlphaScreen, biotin-AF4 peptide, FLAG-AF9, single point; Protein AF-9 (Homo sapiens), P42568; hit rate 0.47% among 350,000; inhibition, % at 10 µM;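 active means every replicate reaching a set inhibition limit, whatever the replicate mean, cut at about 25% in these data; inconclusive means mean inhibition reaches that limit but some replicates miss it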;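 further: 0% = plate neutral control median and 100% = total signal loss; the record names both 10 and 1 µM as test concentration; the first replicate is given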
Target sequence (P42568 whole entry, looked up): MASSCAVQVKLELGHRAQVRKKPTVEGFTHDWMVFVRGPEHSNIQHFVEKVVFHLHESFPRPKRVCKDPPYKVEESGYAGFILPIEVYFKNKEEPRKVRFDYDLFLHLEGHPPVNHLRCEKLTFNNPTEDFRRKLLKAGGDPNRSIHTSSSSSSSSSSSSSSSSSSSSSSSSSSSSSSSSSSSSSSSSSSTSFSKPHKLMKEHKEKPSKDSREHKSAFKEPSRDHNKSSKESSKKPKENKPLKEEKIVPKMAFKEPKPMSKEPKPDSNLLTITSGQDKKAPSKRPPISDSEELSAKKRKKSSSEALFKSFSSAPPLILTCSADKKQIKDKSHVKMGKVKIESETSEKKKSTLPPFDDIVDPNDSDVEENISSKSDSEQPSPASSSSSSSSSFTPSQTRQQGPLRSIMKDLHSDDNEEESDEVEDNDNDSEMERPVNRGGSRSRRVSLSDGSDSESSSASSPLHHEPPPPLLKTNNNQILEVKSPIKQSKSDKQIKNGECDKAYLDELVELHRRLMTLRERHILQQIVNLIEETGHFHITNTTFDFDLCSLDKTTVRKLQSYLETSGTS
E coli growth = E. coli growth inhibition, primary screen, OD600; Escherichia coli growth, 23 h; stronger effect = lower value; OD600 absorbance (concentration not given with the values); hit rate 0.21% among 330,000;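 active means OD600 absorbance below the run mean of sample wells minus 3.6 SD, in any replicate, cut at about 0.56 in these data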;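 further: stock transfer was 300 nL into about 60 µL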
HNF4A DNA FP = change in binding of human HNF4A to DNA, primary screen, biochemical, fluorescence polarization, FITC-DNA | hit rate 0.3% among 360,000 | 1 h | activity change, % at 10 µM | Hepatocyte nuclear factor 4-alpha (Homo sapiens), P41235 | AID 1224865, 2016; in the data active means activity change above about 30%, passing the limit was not always enough;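 further: controls were the assay level and a saturating level of protein; the project sought stronger binding though the title names inhibitors; some compounds called inactive have numbers as strong as hits; positive values seem to mean higher polarization but the record does not say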
Vif TR-FRET = inhibitors of Vif binding to APOBEC3G peptide, primary screen, biochemical, TR-FRET, GST-Vif 1-94, biotin-A3G peptide, dose response retest (AID 1117319); Virion infectivity factor (Human immunodeficiency virus type 1 group M subtype B (isolate …; TR-FRET GST-Vif / biotin-A3G peptide binding; higher % means a stronger effect; test concentration not given here; strong numbers were not always called active; one-dose inhibition, %; IC50 in µM for titrated hits; hit rate 0.57% among 260,000;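 active means above the screen mean plus three standard deviations and confirmed in dose response; inconclusive means results disagree or hit not tested in dose response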;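 further: Vif residues 1-94 fused to GST binding biotinylated APOBEC3G peptide 110-148; 0% = full assay without inhibitor and 100% = GST in place of GST-Vif; retest series ran down from 100 µM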
UCH37 DUB inh = inhibitors of human UCH37 deubiquitinase, primary screen, biochemical, Ub-AMC cleavage, fluorescence; Ubiquitin carboxyl-terminal hydrolase isozyme L5 (Homo sapiens), Q9Y5K5; purified proteasome/UCH37; inhibition, % (concentration not given with the values); hit rate 0.33% among 330,000;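 active means mean of two replicates above 20%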;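 further: 0% = compound-free wells with enzyme and 100% = wells lacking proteasome; stock transfer was 100 nL into about 20 µL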
Target sequence (Q9Y5K5 whole entry, looked up): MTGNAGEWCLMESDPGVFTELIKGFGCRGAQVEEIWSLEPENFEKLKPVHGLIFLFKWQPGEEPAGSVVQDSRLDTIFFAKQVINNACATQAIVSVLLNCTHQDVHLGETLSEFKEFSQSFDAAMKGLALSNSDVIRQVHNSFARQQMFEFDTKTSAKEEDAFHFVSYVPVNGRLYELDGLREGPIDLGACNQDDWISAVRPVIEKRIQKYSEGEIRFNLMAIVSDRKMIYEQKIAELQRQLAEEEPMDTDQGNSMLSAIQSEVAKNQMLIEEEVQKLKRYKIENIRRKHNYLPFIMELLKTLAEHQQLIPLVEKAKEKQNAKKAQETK
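Test system – human UCH37 enzyme supplied as purified proteasome complex · Incubation – 30 min preincubation with enzyme, 25 min cleavage at room temperature · Detection – AMC fluorescence from Ub-AMC cleavage, excitation 355 nm, emission 460 nm · Benchmarks – no-proteasome wells (full inhibition) and compound-free wells (no inhibition)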
FGF22 binding = binders of human FGF22 protein, primary screen, FGF22 synaptogenesis inhibitor project, biophysical, thermal shift, single point | recombinant FGF22 thermal shift, SYPRO orange fluorescence; percent of sucrose octasulfate shift, DMSO zero | AID 651658, 2012 | hit rate 1.5% among 340,000 | calls only at 9.99 µM;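 active means melting point raised past a set limit in the mean and every replicate; inconclusive means no clear call; three in four hits are not shown here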
Target sequence (Q9HCT0 whole entry, looked up): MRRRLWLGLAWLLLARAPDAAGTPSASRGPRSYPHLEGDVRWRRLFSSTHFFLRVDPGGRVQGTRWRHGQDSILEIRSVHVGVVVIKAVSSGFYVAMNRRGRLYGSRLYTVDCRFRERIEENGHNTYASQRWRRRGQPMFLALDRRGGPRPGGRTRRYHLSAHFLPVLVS
Active calls of the source: *; i = inactive; ? = inconclusive; nt = no result given. Only part of the results is shown; count on the stated rates, not on these rows.

SMILES	RanGTP-Impb inh	MLL AF4-AF9 inh	E coli growth	HNF4A DNA FP	Vif TR-FRET	UCH37 DUB inh	FGF22 binding
CC(=O)Nc1ccc(S(=O)(=O)N(C)Cc2ccccc2)cc1	-2.0	-0.9	0.69	-0.1	0%	-0.8	i
Cc1cccc(NC(=O)CN2C(=O)c3ccccc3S2(=O)=O)n1	-3.3	-13	0.63	-9.2	0%	5.1	i
O=C(OCC(=O)N1CCN(C(=O)c2ccco2)CC1)c1cc(=O)c2ccccc2o1	0.6	nt	0.74	1.9	17%	1.7	nt
C/C(=N\NC(=O)c1nnn(-c2nonc2N)c1CSc1ccc(C)cc1)c1ccco1	1.9	2.8	nt	2.1	2%	nt	i
O=S(=O)(c1cccs1)N1CCc2ccccc2C1	1.3	nt	0.69	2.7	-3%	2.2	nt
O=C(C1=C(O)C(=O)N(CC2CCCO2)C1c1ccccc1Cl)c1ccco1 (centres undefined)	-0.8	-0.9	0.69	-2.0	nt	12	i
CCn1c(SCC(=O)Nc2cccc(O)c2)nc2c1c(=O)n(C)c(=O)n2C	0.6	0.6	0.7	1.0	nt	2.5	i
CSCCC(NC(=O)c1cccc(C)c1)C(=O)Nc1sccc1C(N)=O (centres undefined)	-1.9	-0.4	0.69	4.2	-1%	-1.2	i
CCn1c(SCC(=O)Nc2cccc(C)c2)nc2ccccc2c1=O	3.6	0.6	0.68	-0.8	-2%	2.3	i
Cc1ccc2cccc(OCC(=O)Nc3ccc4c(c3)OCO4)c2n1	-1.1	-4.4	0.7	9.1	5%	2.9	i
COc1ccc(OCCC(=O)OCC(=O)NCCC2=CCCCC2)cc1	-0.7	2.3	0.72	4.5	0%	4.8	nt
CC1=C(C(=O)N2CCCCCC2)CC(CC(=O)NCc2cccc3ccccc23)C(=O)N1CCC1=CCCCC1 (centres undefined)	nt	1.0	nt	-1.0	nt	nt	i
Cc1ccc(CS(=O)Cc2ccc(C(=O)NC3CCC(C)CC3)o2)cc1 (centres undefined)	-3.2	1.8	0.68	3.0	-8%	2.7	i
O=[N+]([O-])c1ccc(Cl)cc1N1CCCC1	1.2	1.1	0.57	5.7	-7%	2.6	nt
COc1cccc(C2Nc3ccccc3C(=O)N2O)c1O (centres undefined)	-0.5	nt	0.61	-0.6	25%	1.3	nt
CC(C)(C)NC(=O)/C=C/c1cccs1	0.1	-1.9	0.64	-0.1	-7%	4.5	i
CCOc1nc(C)cc(C)c1S(=O)(=O)c1ccc(Cl)cc1	2.6	-5.1	0.7	3.8	-7%	2.0	i
CC1(C)CC(N2CCN(CCO)CC2)=CC(=S)N1	?	0.4	nt	-1.1	-2%	nt	i
O=S(=O)(c1cccs1)N1CCN(c2ccnc3cc(Cl)ccc23)CC1	0.3	2.2	nt	1.6	32%	nt	i
CCN(C(=O)CSc1nnnn1-c1ccc(OC)cc1)C1CCS(=O)(=O)C1 (centres undefined)	nt	-3.0	0.72	-1.8	nt	1.6	i
Cc1ccc(C2C(C#N)=C(N)SC(N)=C2C#N)c(C)c1	47*	nt	0.67	142	0%	4.8	nt
COc1cc(CCC(=O)Nc2ccc(C)c(S(=O)(=O)N3CCCCCC3)c2)cc(OC)c1OC	nt	-0.9	0.68	3.0	14%	0.1	i
C=CCn1c(Cc2cccs2)nnc1SCC(=O)c1ccc2ccccc2c1	-0.4	nt	0.66	7.0	-3%	4.6	nt
COc1nccnc1NS(=O)(=O)c1ccc(NC(=S)NC(=O)/C=C/c2ccc(F)cc2)cc1	-0.2	-4.1	0.68	-1.4	5%	8.2	i
Cc1ccc(S(=O)(=O)CCC(=O)OCCOc2ccc(Br)cc2)cc1	nt	-1.8	nt	-0.3	3%	nt	i
O=C(Nc1ccc(N2CCCCC2)cc1)c1ccc([N+](=O)[O-])o1	-3.7	9.3	0.62	-20	nt	4.6	i
Cc1cc(C(=O)Nc2ccc(Cl)cc2)c2ccccc2n1	-0.9	-3.1	0.7	0.5	nt	-0.3	i
COc1ccc(CCN2C(=O)c3ccccc3C2c2nnnn2C(C)C)cc1OC (centres undefined)	nt	-8.4	nt	4.0	nt	nt	i
O=c1oc(-c2ccccc2F)nc2scc(-c3ccccc3)c12	0.1	2.2	nt	1.3	nt	nt	i
Cc1cc(SCC(=O)OCC(=O)NCC2CCCO2)c(C)cc1Br (centres undefined)	-1.1	-1.4	0.68	0.1	-10%	0.3	i
N=C(N)SCc1ccc(Cl)cc1Cl	-0.7	0.7	0.12*	0.6	-18%	4.3	i
CCOc1ccc(NC(=O)CSc2nnc(C3CC3)n2C2CC2)cc1	nt	-1.5	0.72	1.9	18%	1.2	i
Cc1sc2ncnc(NCC(c3ccco3)N(C)C)c2c1C (centres undefined)	?	nt	0.72	1.3	3%	1.7	nt
Fc1ccc(NC(=S)Nc2cccc(Cl)c2)cc1	?	nt	0.57	0.8	nt	1.2	nt
CN(c1ccccc1C(=O)Nc1ccccc1-c1ccccc1)S(C)(=O)=O	2.4	1.7	0.69	-2.9	nt	6.4	i
S=C(NCCCN1CCOCC1)Nc1ccc(Cl)c(Cl)c1	-1.0	nt	0.67	0.4	-4%	3.2	nt
COc1cccc(-c2ccc3nnc(SCC(=O)Nc4ccc(NC(C)=O)cc4)n3n2)c1	-4.2	-0.6	0.69	0.8	-3%	9.8	i
COCCNc1ncnc2c1ncn2[C@H]1CN(Cc2ccncc2)C[C@@H](CO)O1	nt	-2.3	nt	1.5	nt	nt	i
FC(F)(F)c1ccc2c(c1)n(Cc1ccccc1)c1[n+]2CCCCC1	0.3	-1.0	0.69	11	nt	0.6	i
CCOC(=O)c1sc(NC(=O)c2ccc(OC)cc2)nc1C	-2.0	-0.9	0.74	2.4	-6%	-10.0	i
COc1ccc(CCC2=NCCN2C(CC(C)C)c2nc3ccccc3[nH]2)cc1 (centres undefined)	nt	1.2	nt	-6.1	nt	nt	i
Cc1cc(OC(=O)c2cccc([N+](=O)[O-])c2)c(C)cc1CN1CCOCC1	0.9	18	0.62	-0.5	3%	2.2	i
CCCCN(C=O)c1c(CC)nc2ccc(C(=O)N3CCN(C(=O)c4ccco4)CC3)cn12	nt	-1.1	nt	4.0	nt	nt	i
N#Cc1cccnc1N1CCN(C(=O)c2ccco2)CC1	3.1	nt	0.68	1.5	-15%	-64	i
Cc1ccc2cccc(OCc3nnc(SCC(=O)O)n3C)c2n1	-3.6	-2.7	0.73	-5.2	nt	-2.8	i
CCOc1ccc(C(=O)NCCO)cc1	-1.5	0.2	0.7	-2.0	-2%	0.0	i
CCCCN1C(=O)C(=O)N(CC(=O)Nc2sc(C)c(CC)c2C(=O)OCC)C1=O	-2.9	-1.4	0.68	1.7	2%	2.4	nt
CSc1nnc(CNC(=O)c2ccccc2)n1-c1cccc(C)c1	-2.3	5.2	0.66	3.7	12%	-1.1	i
CC(=O)Nc1ccc(S(=O)(=O)NCCc2csc(-c3cccnc3)n2)cc1	-3.2	-0.2	0.72	9.6	11%	-3.5	i
CC1(C)Cc2ccccc2/C(=C/C(=O)c2ccccc2)N1	4.1	6.5	0.66	-3.8	nt	2.3	i
COc1ccccc1NC(=O)COC(=O)Cn1c(C)csc1=O	nt	0.4	nt	3.6	nt	nt	i
COc1ccc(N2CCN(S(=O)(=O)c3cc(Br)cnc3N)CC2)cc1	3.7	0.8	0.64	4.2	nt	2.8	i
O=C(Nc1c(C(=O)N2CCOCC2)oc2ccccc12)c1cccc([N+](=O)[O-])c1	1.4	-1.0	0.66	0.5	nt	1.4	i
CCCCNC(=O)COC(=O)CCC(=O)c1cccs1	-1.4	-0.4	0.66	-4.5	21%	-1.5	i
Cc1ccc(S(=O)(=O)N2CCC(C)CC2)cc1C(=O)NCc1ccccn1	-0.4	-7.8	0.68	0.8	nt	1.5	i
COc1ccc(Cc2nnc(SCC(=O)Nc3cc(Cl)ccc3OC)[nH]c2=O)cc1	-0.4	?	0.67	0.4	-13%	2.6	i
O=C(OCCOc1ccccc1F)c1cccc(S(=O)(=O)N2CCOCC2)c1	nt	-18	0.68	-5.0	-5%	4.1	i
Cc1ccc(C#CC[N+]2(CC#Cc3ccc(C)cc3)CCCCC2)cc1	-1.1	-2.9	0.65	0.9	-10%	3.9	i
Cc1cc(Cl)ccc1NC(=O)CSc1n[nH]c(N)n1	nt	-0.8	0.63	4.8	0%	-0.2	i
Cc1c(Cl)cccc1N(CC(=O)O)S(C)(=O)=O	-0.9	nt	0.67	3.8	?	-0.7	nt

Sorted by value in UCH37 DUB inh (descending): 3 of the compounds above
molecule	UCH37 DUB inh
O=C(OCCOc1ccccc1F)c1cccc(S(=O)(=O)N2CCOCC2)c1	4.1
Cc1ccc(S(=O)(=O)N2CCC(C)CC2)cc1C(=O)NCc1ccccn1	1.5
O=C(Nc1c(C(=O)N2CCOCC2)oc2ccccc12)c1cccc([N+](=O)[O-])c1	1.4

(more compounds)
SMILES	RanGTP-Impb inh	MLL AF4-AF9 inh	E coli growth	HNF4A DNA FP	Vif TR-FRET	UCH37 DUB inh	FGF22 binding
CN(CC(=O)Nc1ccccc1Cl)C(=O)CSC(=S)N1CCCC1	-0.2	-3.3	0.69	1.2	3%	1.3	i
Cc1ccccc1C(=O)NCCSc1ccccc1	7.8	nt	0.69	4.3	-1%	0.8	nt
O=C1C(=Cc2cccc(Cl)c2)CCc2ccccc21	nt	10.0	nt	0.6	nt	nt	i
C[C@H](CCC(=O)O)[C@H]1CC[C@H]2[C@@H]3C(=O)C[C@@H]4CC(=O)CC[C@]4(C)[C@H]3CC(=O)[C@]12C	2.9	21	nt	-4.8	nt	1.3	i
CCCCc1cc(=O)oc2cc(OCC(=O)NCc3ccccn3)c(Cl)cc12	?	-4.6	0.71	2.3	0%	-0.8	i
Nc1nc(SCC(=O)NCc2ccccc2)[nH]c(=O)c1NC(=O)c1ccccc1F	-1.1	nt	0.64	-0.7	28%	4.2	nt
CCOC(=O)C(C(=O)Nc1ccccc1)C1CCCCC1 (centres undefined)	0.8	nt	0.73	-0.5	-7%	1.5	nt
O=C(O)CCC(NS(=O)(=O)c1ccc(N2CCCC2=O)cc1)C(=O)O (centres undefined)	4.1	-3.4	0.71	3.8	24%	0.8	i
Cc1cc(C)cc(NS(=O)(=O)c2cnc(Cl)c(Cl)c2)c1	-2.3	nt	0.64	40*	25%	5.2	nt
CCc1cccc2c(C(=O)COC(=O)c3nn(C)c(=O)c4ccccc34)c[nH]c12	0.9	nt	0.73	3.6	8%	-0.8	nt
CSc1ccccc1C(=O)C1CCCN(C(=O)CCN2CCCO2)C1 (centres undefined)	3.3	0.9	0.65	-3.9	?	1.7	i
CN(C)/C(=N\S(=O)(=O)c1ccccc1)c1ccc(F)cc1	4.2	2.0	nt	3.0	nt	nt	nt
CCCOc1ccc(C(=O)OCCN2CCCCC2)c(O)c1	-1.2	17	0.69	3.5	nt	4.5	i
Cc1ccc(/C=C/C(=O)NCc2ccccn2)o1	7.0	nt	0.67	-10	nt	10	nt
COC(=O)c1cc(OC)c(OC)cc1NC(=O)Cn1nnc(-c2ccccc2Cl)n1	2.4	nt	0.73	0.5	?	-1.1	nt
Cc1nc(NC(=O)C2CC2)sc1C(=O)Nc1ccccc1	-2.7	-1.4	0.63	0.9	-10%	5.3	i
COc1cccc(CNC(=O)N2CCN(c3ccccc3)CC2)c1	0.7	1.8	0.68	3.6	-8%	0.1	i
